Screening results from PubChem BioAssay.
T cruzi inh: blocks replication of Trypanosoma cruzi | T. cruzi beta-gal in NIH3T3, luminescence, 90 h | inhibition, % (no concentration beside the values) | 300,000 tested, 1.4% active | AID 1885;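 active means mean inhibition across valid replicates above about 55%, limit read from the data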;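 further: signal also drops with host cell toxicity which is not excluded here; 0% = plate median of DMSO wells and 100% = zero luminescence signal; higher percent means less beta-gal luminescence so fewer parasites; stock transfer was 50 nL into about 50 µL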
FGF22 binding: FGF22 (human) thermal shift binding | recombinant FGF22 thermal shift, SYPRO orange fluorescence; percent of sucrose octasulfate shift, DMSO zero | calls only at 9.99 µM | 340,000 tested, 1.5% active;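 active means melting point raised past a set limit in the mean and every replicate; three in four hits are not shown here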
Target sequence (Q9HCT0 whole entry, looked up): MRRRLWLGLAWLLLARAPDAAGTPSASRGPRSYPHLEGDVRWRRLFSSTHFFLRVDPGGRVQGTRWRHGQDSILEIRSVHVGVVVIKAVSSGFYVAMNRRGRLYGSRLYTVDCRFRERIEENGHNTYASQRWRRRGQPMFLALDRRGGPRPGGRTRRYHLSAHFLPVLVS
Bfl-1 A1 inh: inhibitors of the anti-apoptotic protein A1, read as caspase activation. MEF A1-2A-BIM cells, Caspase-Glo 3/7 luminescence, 3 h; percent of clofoctol response, vehicle zero. caspase activation, % (test concentration not listed). 330,000 tested, 0.066% active;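 active means over half of replicate activation scores above 10%, or exactly half above 10 with the replicate mean above 10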;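 further: wells of about 30 µL received 50 nL stock; many hits fall short of the cut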
UCH37 DUB inh: blocks the human deubiquitinase UCH37. AID 588478. purified proteasome/UCH37, Ub-AMC cleavage fluorescence. inhibition, % (test concentration not listed). Q9Y5K5. 330,000 tested, 0.33% active;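 active means mean of two replicates above 20%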;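 further: 0% = compound-free wells with enzyme and 100% = wells lacking proteasome; stock transfer was 100 nL into about 20 µL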
Target sequence (Q9Y5K5 whole entry, looked up): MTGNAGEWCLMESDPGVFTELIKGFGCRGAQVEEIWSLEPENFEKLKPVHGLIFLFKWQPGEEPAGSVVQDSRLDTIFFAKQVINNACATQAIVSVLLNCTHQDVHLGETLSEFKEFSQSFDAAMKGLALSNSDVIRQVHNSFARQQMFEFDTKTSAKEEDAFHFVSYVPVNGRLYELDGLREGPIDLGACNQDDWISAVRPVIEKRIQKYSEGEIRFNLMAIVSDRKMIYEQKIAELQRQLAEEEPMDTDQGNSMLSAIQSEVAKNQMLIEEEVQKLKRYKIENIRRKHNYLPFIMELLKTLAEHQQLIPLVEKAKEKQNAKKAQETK
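assay system = human UCH37 enzyme supplied as purified proteasome complex | amount = proteasome at 0.15 nM in the dispensed enzyme solution | schedule = 30 min compound-proteasome preincubation then 25 min substrate reaction, room temperature | measured by = fluorescence, ex 355 nm, em 460 nm | benchmarks = no-proteasome wells (full inhibition) and compound-free wells (no inhibition)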
E coli growth: blocks Escherichia coli growth | OD600, 23 h; active compounds read low | OD600 absorbance (concentration not given with the values) | 330,000 tested, 0.21% active | AID 1053175;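 active means OD600 absorbance below the run mean of sample wells minus 3.6 SD, in any replicate, cut at about 0.56 in these data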;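 further: stock transfer was 300 nL into about 60 µL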
rRNA inh HTS: inhibitors of bacterial rRNA selective over humanized ribosomes; AID 720706; 350,000 tested, 1.6% active; GFP signal change (wild-type ribosome), % (no concentration beside the values); E. coli WT GFP vs humanized-ribosome RFP mutants, fluorescence, 24 h; active compounds read low; DMSO median 0, no signal -100;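 active means significant combined selectivity score with lowered wild-type GFP, culture density cut under 30%, mutant RFP and density less affected; inactive means any of these conditions unmet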; further: one replicate is shown; some compounds called inactive have numbers as strong as hits
Beta cell apopt: beta cell apoptosis inhibition | INS-1E cytokine-induced death, ATP luminescence, 48 h; percent of positive-control rescue, neutral wells zero | protection from apoptosis, % (test concentration not listed) | 300,000 tested, 0.8% active;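 active means all replicates at 75% or more, or half of them and the mean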;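 further: 0% = cytokine-treated negative control wells and 100% = positive control rescue; higher means more ATP so stronger rescue from cytokine killing; wells of about 40 µL received 100 nL stock; the first replicate is given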
MLL AF4-AF9 inh: MLL-AF4/AF9 protein interaction inhibition; P42568; AlphaScreen, biotin-AF4 peptide binding to FLAG-AF9; inhibition, % at 10 µM; 350,000 tested, 0.47% active; AID 651704;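 active means every replicate reaching a set inhibition limit, whatever the replicate mean, cut at about 25% in these data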;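 further: 0% = plate neutral control median and 100% = total signal loss; the record names both 10 and 1 µM as test concentration; the first replicate is given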
Target sequence (P42568 whole entry, looked up): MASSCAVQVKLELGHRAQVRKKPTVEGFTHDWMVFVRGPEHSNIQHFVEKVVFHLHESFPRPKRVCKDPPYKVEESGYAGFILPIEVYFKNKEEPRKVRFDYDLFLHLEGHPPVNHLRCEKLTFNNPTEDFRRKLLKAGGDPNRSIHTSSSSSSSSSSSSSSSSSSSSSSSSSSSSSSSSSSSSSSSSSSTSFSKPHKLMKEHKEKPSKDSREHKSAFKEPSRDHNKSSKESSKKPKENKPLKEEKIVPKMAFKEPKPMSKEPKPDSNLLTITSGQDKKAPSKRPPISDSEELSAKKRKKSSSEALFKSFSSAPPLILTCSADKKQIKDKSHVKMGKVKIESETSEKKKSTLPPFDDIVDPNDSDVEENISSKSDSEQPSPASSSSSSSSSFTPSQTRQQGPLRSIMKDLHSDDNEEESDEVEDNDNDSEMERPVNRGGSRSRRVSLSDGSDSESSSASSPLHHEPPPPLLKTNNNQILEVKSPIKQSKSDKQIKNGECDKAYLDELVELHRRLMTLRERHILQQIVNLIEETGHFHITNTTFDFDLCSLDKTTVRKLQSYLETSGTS
rRNA inh HTS OD600: also measured in rRNA inh HTS; calls as there; OD600 change, %; measured here: OD600 growth;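 optical density of the mix in the first replicate; 0 = DMSO median and -100 = no signal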
rRNA inh HTS RFP: second read-out of rRNA inh HTS, no call of its own (marks repeat the call); RFP signal change, %; measured here: RFP humanized mutant strains;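 first replicate; 0 = DMSO median and -100 = no signal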
Starred values were filed as active, the others as inactive; i = inactive; . = not tested or not shown. Only part of the results is shown; count on the stated rates, not on these rows.

SMILES	T cruzi inh	FGF22 binding	Bfl-1 A1 inh	UCH37 DUB inh	E coli growth	rRNA inh HTS	rRNA inh HTS OD600	rRNA inh HTS RFP	Beta cell apopt	MLL AF4-AF9 inh
COc1ccccc1CCCNC(=O)C1CCC(=O)N(CCN2CCOCC2)C1 (centres undefined)	-5	i	0.5	5.3	0.71	11	11	-1.7	2	0.2
O=C(Cc1ccccc1)NCc1ccncc1	-20	.	0.1	.	.	14	13	1.6	-8	-1.4
CCOC(=O)C1CC(c2ccccc2)=NNC1=O (centres undefined)	-15	.	1.9	5.2	0.68	12	5	0.7	.	0.4
CC1CC(C)CN(CCOc2ccccc2-c2ccccc2)C1 (centres undefined)	11	.	-0.2	0.9	0.7	.	.	.	.	.
CC(/C=N/N1CCN(Cc2ccccc2)CC1)=C\c1ccccc1	27	.	0.5	.	.	-27	-54	4.8	-3	-13
Cc1cc(C)n(C(=O)CNC(=O)C(c2ccccc2)c2ccccc2)n1	-9	.	1.4	3.7	0.8	.	.	.	-7	.
COc1cccc(OCCNC(=O)c2ccccc2Sc2ccccc2C#N)c1	-7	i	0.2	1.3	0.68	-20	-7	12	0	-3.6
CCOC(=O)C1CCCN(C(=O)c2ccc3c(c2)OCO3)C1 (centres undefined)	-2	.	0.1	4.3	0.68	.	.	.	-1	.
CC(=O)C(Cc1cccc(F)c1)(Cc1cccc(F)c1)C(C)=O	-8	i	0.6	3.0	0.72	-30	-47	-5.2	0	0.6
CCOc1ccc(N(CC)C(=O)c2cn(CC)c(=O)c3cc(OC)c(OC)cc23)cc1	-1	i	-5.9	3.6	0.67	2	3	2.4	-1	-1.1

Results in rRNA inh HTS OD600, for some of the entries so far:
Molecule | rRNA inh HTS OD600
CC(=O)C(Cc1cccc(F)c1)(Cc1cccc(F)c1)C(C)=O | -47
CCOc1ccc(N(CC)C(=O)c2cn(CC)c(=O)c3cc(OC)c(OC)cc23)cc1 | 3

(list continues)
SMILES	T cruzi inh	FGF22 binding	Bfl-1 A1 inh	UCH37 DUB inh	E coli growth	rRNA inh HTS	rRNA inh HTS OD600	rRNA inh HTS RFP	Beta cell apopt	MLL AF4-AF9 inh
N#Cc1cnc(SCC(=O)NNC(=O)COc2cccc3ccccc23)nc1N	-13	i	-0.5	.	.	24	12	1.7	-7	2.6
O=C(CSc1ncccn1)Nc1ccc(S(=O)(=O)N2CCCCC2)cc1	9	.	-1.3	0.4	0.68	.	.	.	-5	.
O=C1CCCCCN1CP(=O)(O)CCc1ccccc1	6	i	0.0	2.5	0.69	14	5	0.8	-6	5.6
O=C(NC(Cc1ccccc1)C(=O)O)c1ccccc1 (centres undefined)	.	.	0.9	4.6	0.73	.	.	.	2	.
O=C1OCc2ccc(NC(=O)C3CCCCC3)cc21	-9	i	1.5	2.2	0.7	13	11	0.3	2	-3.2
Nc1ccc2nn(-c3ccc(Cl)cc3)nc2c1	-7	i	-4.6	-302	0.69	0	-6	0.0	2	-3.9
CC(Oc1ccccc1)C(=O)Nc1c2c(nn1-c1ccccc1)CS(=O)(=O)C2 (centres undefined)	5	i	0.6	1.1	0.76	5	4	3.1	-2	0.1
CC(C)c1cccc(OCC(=O)Nc2ccc(S(=O)(=O)Nc3ccccn3)cc2)c1	5	i	-0.2	-9.5	0.7	2	-6	2.0	-1	0.0
Cc1c(/C(O)=C2/C(=O)C(=O)N(CCN3CCOCC3)C2c2ccco2)cnn1-c1ccccc1 (centres undefined)	.	i	.	8.8	0.64	20	7	4.4	.	-8.4
O=C(c1cc(COc2ccc3c(c2)CCCC3)on1)N1CCCC1	-4	i	-0.3	.	.	-28	-22	-9.7	.	-2.3

Reprinted at random: 2 compounds from above
SMILES	T cruzi inh	FGF22 binding	Bfl-1 A1 inh	UCH37 DUB inh	E coli growth	rRNA inh HTS	rRNA inh HTS OD600	rRNA inh HTS RFP	Beta cell apopt	MLL AF4-AF9 inh
CC(Oc1ccccc1)C(=O)Nc1c2c(nn1-c1ccccc1)CS(=O)(=O)C2 (centres undefined)	5	i	0.6	1.1	0.76	5	4	3.1	-2	0.1
N#Cc1cnc(SCC(=O)NNC(=O)COc2cccc3ccccc23)nc1N	-13	i	-0.5	.	.	24	12	1.7	-7	2.6

The list continues:
SMILES	T cruzi inh	FGF22 binding	Bfl-1 A1 inh	UCH37 DUB inh	E coli growth	rRNA inh HTS	rRNA inh HTS OD600	rRNA inh HTS RFP	Beta cell apopt	MLL AF4-AF9 inh
COc1cccc(C2c3c(oc4ccc(Cl)cc4c3=O)C(=O)N2c2cc(C)on2)c1OC (centres undefined)	17	.	0.7	3.2	0.75	.	.	.	13	.
COc1ccccc1CNS(=O)(=O)c1cccc(S(=O)(=O)N2CCOCC2)c1	16	.	0.0	3.3	0.69	.	.	.	3	.
COc1ccccc1CN(Cc1cc2cc(C)cc(C)c2[nH]c1=O)Cc1nnnn1CC1CCCO1 (centres undefined)	24	.	-0.5	-2.9	0.64	7	2	2.3	6	-3.4
Cc1ccc(S(=O)(=O)N2CCCCC2)c2nsnc12	-7	i	0.2	2.3	0.7	1	-5	-2.9	0	0.3
CN1CCN(c2nc(-c3cc4ccccc4o3)cs2)CC1	8	.	0.0	6.8	0.68	.	.	.	-8	.
O=C(c1ccc(Cl)c(S(=O)(=O)N2CCOCC2)c1)N(Cc1nnc(-c2ccccc2Cl)o1)C1CC1	23	i	1.1	-0.2	0.69	-6	-13	6.9	4	-2.0
CN(CC(=O)Nc1cc(Cl)cc(Cl)c1)Cc1cccs1	21	i	0.0	0.1	0.61	-68	-81	-22	-6	-2.7
CCCCCOc1ccc(NC(=O)C(=O)NCCC2=CCCCC2)cc1	-17	.	0.0	-2.6	0.71	.	.	.	-2	.
CCCCN(C)C(=O)c1cn(C)c2ccc(S(=O)(=O)N(C)C)cc2c1=O	-7	i	0.1	7.9	0.73	12	18	-3.7	-2	-1.2
CC(C)NS(=O)(=O)c1ccc(NC(=S)NC(=O)c2ccc(-c3ccccc3)cc2)cc1	31	.	-0.2	3.5	0.66	.	.	.	24	.
CC(C)(C)[C@@H]1COC(=O)[C@H](Cc2ccc(F)cc2)C/C=C\C[C@H](CC(=O)N(CCO)Cc2ccccc2)C(=O)N1	.	i	0.1	0.4	.	-29	-40	34	5	1.1
CCN(c1ccccc1)S(=O)(=O)c1cccc(C(=O)NCC(c2ccco2)N2CCCC2)c1 (centres undefined)	34	i	-1.0	0.2	0.66	-2	0	2.0	-1	0.3
COc1c2c(nc3ccccc13)OC(C(C)(O)CO)C2 (centres undefined)	2	i	0.5	4.9	0.66	16	-3	-0.4	-3	5.1
CCOC(=O)C(CC)n1nc(C)n2c(cc3occc32)c1=O (centres undefined)	-7	.	0.0	2.1	0.69	.	.	.	-4	.
C=CCN(c1ccccc1)S(=O)(=O)c1cccc(C(=O)N2CC(C)CC(C)C2)c1 (centres undefined)	21	i	-0.4	2.6	0.69	1	2	-0.3	7	0.5
Cc1ccc(S(=O)(=O)n2ccc3c(OCCOCCSCC(NC(=O)OC(C)(C)C)C(=O)O)cccc32)cc1 (centres undefined)	8	.	0.4	1.2	0.7	-10	-5	6.0	-13	0.9
Clc1ccc(-c2cn3c(n2)CCC3)cc1	-13	.	-4.1	1.5	0.66	.	.	.	0	.
S=c1[nH]c2ncccc2o1	-3	i	0.3	6.1	0.71	2	2	-4.3	-3	3.4
O=c1[nH]c([N+](=O)[O-])nn1C(c1ccccc1)c1ccccc1	14	i	1.1	3.4	0.68	-13	12	-2.0	4	1.0
CCOC(=O)N1CCC(=NNc2ncc(C(F)(F)F)cc2Cl)CC1	1	i	0.8	.	.	2	23	-3.0	-1	-0.5
COc1cccc(OCc2cc(C(=O)N(C)C3CC(C)(C)NC(C)(C)C3)no2)c1	11	i	1.6	4.1	0.66	3	0	-1.8	-6	1.5
CCOc1ccccc1OCCC(=O)Nc1ccc2c(c1)OCO2	.	i	-1.1	5.4	0.73	-12	-19	-1.5	5	1.2
Cc1ccc(C)c(C(=O)CSc2nc(C)cc(=O)[nH]2)c1	-5	i	-0.2	1.1	0.68	-12	-9	-1.5	2	1.0
CC(=O)Nc1cc(-c2ccccc2)nn1Cc1ccc(Cl)cc1	13	.	1.0	-0.5	0.61	.	.	.	.	.
CC(C)c1ccc(OCc2nnc(SCC(=O)N3CCCCC3)o2)cc1	9	i	0.2	3.9	0.68	-8	-44	-0.7	-3	2.4
CCCCn1cnc2sc3c(c2c1=N)CCCC3	-7	.	0.2	4.3	0.68	.	.	.	14	.
CSc1nnc2c(n1)[nH]c1c(C)cccc12	9	.	-0.2	4.9	0.69	.	.	.	8	.
COC(=O)c1ccc(NC2CC(=O)N(c3ccccc3C)C2=O)cc1 (centres undefined)	-7	.	-0.4	1.6	0.68	.	.	.	-7	.
O=C1CSC(c2ccccc2)N1c1ccccc1F (centres undefined)	-11	.	-0.5	0.3	0.68	8	-1	4.2	7	-0.1
NC1=NS(=O)(=O)NC1c1ccc(Br)cc1 (centres undefined)	-5	i	-0.3	-1.5	0.65	-5	-7	-4.0	-4	-2.3
O=C(Cn1cnc2c(nnn2Cc2ccc(F)cc2)c1=O)N1CCN(c2ccccc2)CC1	10	.	-0.4	3.7	0.66	.	.	.	1	.
CCOC(=O)c1ccccc1NC(=O)Cn1cnc2c1c(=O)n(C)c(=O)n2C	13	.	-0.1	5.0	0.69	.	.	.	-4	.
Cc1cccc(NC(=O)CN2CCN(CC(=O)NCC3(N4CCCCC4)CCCCC3)CC2)c1C	.	i	.	4.8	0.69	2	7	5.6	.	-1.8
C[C@@H]1CCC(=O)N(CC[C@H](Sc2ccc(Br)cc2)c2ccccc2)CC1	.	i	1.7	.	.	-16	-26	-7.7	11	.
CC1CC(C)CN(C(=O)C2CCC(CNS(=O)(=O)c3ccccc3)CC2)C1 (centres undefined)	4	i	0.2	3.7	0.66	10	0	-0.2	-4	-2.4
Cc1cccc(-n2ncc3c2CCCC3NC(=O)CC(F)(F)F)c1C (centres undefined)	-14	i	0.4	5.3	0.67	-7	-8	-2.0	-3	1.1
COCCNC(=O)C(c1ccc(O)cc1)N(Cc1ccccc1)C(=O)CCC(=O)Nc1nccs1 (centres undefined)	10	i	1.0	4.4	0.66	5	7	0.0	5	3.7
CC1([N+](=O)[O-])COC(C=Cc2ccccc2)OC1 (centres undefined)	.	i	.	0.1	0.61	6	2	0.1	.	2.6
COc1ccc(C(=O)CSc2nnc(Cn3nnc4ccccc43)n2C)cc1	-6	i	-0.5	0.6	0.64	1	-3	-0.3	-1	-4.3
C[C@H](NC(=O)OC(C)(C)C)C(=O)N/N=C/C1=Cc2ccccc2OC1	-3	i	-0.3	.	.	4	4	1.4	-2	-0.6
CCOc1ccc(CN(C)CC(=O)Nc2cc(OC)c([N+](=O)[O-])cc2C)cc1	59*	i	-1.8	5.9	0.72	-2	15	-6.3	3	1.5
CC(c1ccccc1)C(CC(=O)O)C(=O)Nc1ccc(Cl)c(Cl)c1 (centres undefined)	-1	i	0.1	4.5	0.72	-1	-13	-1.9	-5	-8.9
O=C1NCC(CN(c2ccccc2)c2ccccc2)O1 (centres undefined)	4	.	0.5	0.5	0.68	.	.	.	-5	.
Cc1ccc(-c2nnc(N3CCN(C(=O)Cn4c(=O)n(C)c5ccccc54)CC3)c3ccccc23)cc1	0	.	0.7	4.3	0.69	.	.	.	21	.
